Compound activity from PubChem.
Cruzain noTriton: cruzain (T. cruzi) inhibition without detergent | P25779 | purified cruzain, Z-FR-AMC fluorescence, no detergent | Potency, µM, for the others: max response, negative = inhibition, usual class: inhibitors | 200,000 compounds, 2.3% hits;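 note: plate controls were enzyme without inhibitor for no effect and buffer without enzyme for full effect; nearly all actives have a fitted effect of over 40% in size; top concentration of the series not given in the record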
Target sequence (P25779 123-467 limits assumed): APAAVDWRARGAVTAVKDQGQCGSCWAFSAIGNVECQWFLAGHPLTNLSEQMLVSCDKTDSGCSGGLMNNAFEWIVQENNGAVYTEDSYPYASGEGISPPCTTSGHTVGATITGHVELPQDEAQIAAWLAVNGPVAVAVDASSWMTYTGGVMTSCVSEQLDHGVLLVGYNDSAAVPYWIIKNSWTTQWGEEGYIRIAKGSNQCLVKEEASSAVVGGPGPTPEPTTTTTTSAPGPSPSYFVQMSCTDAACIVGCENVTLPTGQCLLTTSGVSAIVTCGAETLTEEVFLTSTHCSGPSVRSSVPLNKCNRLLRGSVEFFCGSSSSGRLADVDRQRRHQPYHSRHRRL
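Detergent-free condition (0.00005% Triton X-100) in acetate buffer pH 5.5 with DTT. 1.5 nM enzyme and compound were pre-mixed 15 min, then 2 uM Z-FR-AMC substrate added; reaction progress from fluorescence change between first and third reads (60 s).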
Lassa entry inh: Lassa virus entry inhibition. Lassa virus pseudotype entry inhibition, cell reporter; control for the full effect not named in the record. Potency, µM (titrated, usually from 37.9 µM), inactives show at the highest dose activity change, negative = inhibition, most hits filed as inhibitors. 300,000 compounds, 1.2% hits. AID 540256; active means well fitted inhibition curve with a large enough effect; inconclusive means small, poorly fitted or top-dose-only effect, or effect the other way; inactive means flat fitted curve, though single readings scatter; tested in HEK293 cells; note: % is set by controls: 0 for no effect and ±100 for the full control effect; nearly all actives have a fitted effect of over 50% in size; luciferase read-out
Cruzain inh Det: blocks cruzain activity in presence of Triton detergent | P25779 | purified cruzain, Z-FR-AMC fluorescence, 0.01% Triton | Potency, µM, inactives show max response, negative = inhibition, actives largely listed as inhibitors | 200,000 compounds, 0.43% hits;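 note: plate controls were neutral wells for no effect and buffer without enzyme for full effect; nearly all actives have a fitted effect of over 40% in size; top concentration of the series not given in the record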
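Z-FR-AMC hydrolysis (2 uM substrate) by cruzain (1.5 nM) monitored kinetically at ex 360/em 450 nm after 15 min room-temperature compound exposure; 0.01% Triton X-100, pH 5.5, 5 mM DTT.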
SARS PLP yeast: inhibitors of SARS-CoV papain-like protease in yeast. S. cerevisiae expressing SARS-CoV PLpro, growth rescue; control for the full effect not named in the record. Potency, µM (top dose mostly 32.9 µM), without a hit: at the highest dose activity, positive = growth rescue. 330,000 compounds, 0.19% hits; active means well fitted rising curve with a large enough effect; inconclusive means small, poorly fitted or top-dose-only effect; inactive means no such curve, though single readings can be large or run the other way; note: 0% is about no effect; nearly all actives have a fitted effect of over 55% in size; growth read by luminescence after 48 h
Marburg entry inh: blocks Marburg virus binding to or entry into cells; Potency, µM (top dose mostly 37.8 µM), without a hit: top-dose activity change, negative = inhibition, usual class: inhibitors; Marburg virus pseudotyped entry inhibition, cell reporter; control for the full effect not named in the record; about a third of the inactives were read at about 46 µM; 300,000 compounds, 1.8% hits; active = well fitted inhibition curve with a large enough effect; inconclusive = small, poorly fitted or top-dose-only effect, or effect the other way; inactive = flat fitted curve, though single readings scatter; tested in HEK293 cells; about a fifth of its hits are not listed in these tables; note: % is set by controls: 0 for no effect and ±100 for the full control effect; luciferase read-out
RE007 growth inh: less growth of the S. pombe RE007 Vpr strain. Potency, µM (doses to about 92.2 µM), for the others: top-dose activity change, negative = less growth. AID 651644. 360,000 compounds, 0.21% hits. S. pombe RE007 Vpr strain, BacTiter-Glo ATP luminescence, 24 h; control for the full effect not named in the record; active = well fitted falling curve with a large enough effect; inconclusive = small, poorly fitted or top-dose-only effect; inactive = no such curve, though single readings can be large or run the other way;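 note: % is set by controls: 0 for no effect and ±100 for the full control effect; nearly all actives have a fitted effect of over 50% in size; the assay follows cell death caused by Vpr and the record does not say whether a fall means rescue or toxicity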
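Fission yeast RE007 carrying one integrated HIV-1 vpr copy, seeded at OD 0.01 in PMG+AL medium with 23 nL pinned compound. Grown 24 h at 30 degrees; viability read by BacTiter-Glo luminescence after 5 min.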
NS1 function inh: inhibitors of influenza NS1 protein function. S. cerevisiae slowed by influenza A NS1, growth recovery by OD600. Potency, µM (titrated, usually from 46.1 µM), inactives show at the top dose activity, positive = more growth. 270,000 compounds, 0.4% hits; active means well fitted rising curve with a large enough effect; inconclusive means small, poorly fitted or top-dose-only effect; inactive means no such curve, though single readings can be large or run the other way; note: nearly all actives have a fitted effect of over 50% in size
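Growth recovery, yeast-based: influenza A NS1 expressed in S. cerevisiae causes slow growth, and suppressors are detected by OD600. The parent strain without NS1 is used as positive control.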
StopGo reporter: lowers the luciferase signal of an FMDV 2A StopGo reporter | 410,000 compounds, 1.2% hits | human cells with a luciferase reporter of 2A StopGo recoding; control for the full effect not named in the record | Potency, µM (highest dose often 57.9 µM), without a hit: at the highest dose signal change, negative = less light; active = well fitted falling curve with a large enough effect; inconclusive = small, poorly fitted or top-dose-only effect; inactive = no such curve, though single readings can be large or run the other way; tested in HEK293T cells; note: % is set by controls: 0 for no effect and ±100 for the full control effect; nearly all actives have a fitted effect of over 45% in size; luciferase light after 4 h
* hit, by the source's call; ? = inconclusive; . = no result given; [ ] = another dose, or the depositor's remark. Unless noted, calls come from the whole dose curve; as a rule, active = well fitted curve in the direction sought with a large enough effect; inconclusive = small, poorly fitted or top-dose-only effect, or another doubt; inactive = no such curve, though single readings can be large; an effect the other way counts as inactive or inconclusive. Potency is the fitted concentration of half-maximal effect. Not a hit list; overall some 4.6% were active at least once.

SMILES | Cruzain noTriton | Lassa entry inh | Cruzain inh Det | SARS PLP yeast | Marburg entry inh | RE007 growth inh | NS1 function inh | StopGo reporter
COc1ccc(OCC(=O)NNC(=O)c2nn(C)c(=O)c3ccccc23)cc1 | 5% | -3% | -0.3% | 5% | 19% | 17% | 3% | -26%
CCc1ccc(NC(=O)C2CCN(S(=O)(=O)c3cnc[nH]3)CC2)cc1 | . | . | . | -5% | . | 0% | -8% | -27%
O=C(CN1CCC(c2nc3ccccc3[nH]2)CC1)NCc1ccc2c(c1)OCO2 | -7% | 13% | 3.3% | 0% | -14% | 6% | ? | 4%
CN(c1ccccc1)S(=O)(=O)c1nnc(NC(=O)COc2ccccc2F)s1 | . | . | . | 2% | . | -3% | -3% | -4%
Cn1c(N)c(C(=O)COC(=O)CCC(=O)c2cccs2)c(=O)n(C)c1=O | 0% | -1% | 4.1% | -6% | 12% | 2% | -2% | -5%
Cc1ccc(NC(=O)[C@H](Cc2c[nH]c3ccccc23)NC(=O)[C@@H]2Cc3ccccc3CN2)c(C)c1 | . | . | . | 11% | . | 1% | 9% | -4%
O=C(c1cc(-c2cccc(Cl)c2)nc2ccccc12)N1CCCC1 | . | 12% | . | -2% | 2% | 3% | -51% | -20%
COc1cc(NC(=O)c2cc(-c3cccc(Cl)c3)on2)c(OC)cc1Cl | -16% | 14%[46.1 µM] | -0.4% | . | 8%[46.1 µM] | . | . | ?
Cc1cc(C)n(-c2ccc(Cl)c(Cl)c2)n1 | . | 5%[46.1 µM] | . | 0% | 19%[46.1 µM] | 0% | 8% | 8%
COc1ccc(CCN2C(=O)C(O)=C(C(=O)c3ccco3)C2c2cccs2)cc1OC (stereo not given) | -2% | 12% | -3.8% | 0% | 18% | -3% | -27% | 7%
O=C(Nc1ccnn1C1CCN(Cc2ccc(CO)o2)CC1)c1ccccc1Cl | . | 14% | . | 0% | 4% | -11% | -5% | -7%
Cc1ccc(S(=O)(=O)NCC2CCCO2)cc1[N+](=O)[O-] (stereo not given) | 6% | -16% | 0.1% | -3% | ? | 2% | -8% | 43%[activator]
CC(=O)Nc1ccc(C2=NNC(=NCC3CCCO3)SC2)cc1 (stereo not given) | -12% | 10% | -13% | -10% | -4% | -8% | 14% | 18%
COc1ccc(-c2cc(C(C)=O)c(C)n2CCC(=O)NC2CCCCC2)cc1 | 0% | 5%[46.1 µM] | -1.3% | . | . | . | . | 12%
Cc1cnc(C(=O)NCc2ccc(Cl)cc2Cl)cn1 | . | 4% | . | -3% | 2%[46.1 µM] | 0% | . | -1%
Cc1ccc(S(=O)(=O)N(CC(=O)NCc2ccco2)c2ccccc2C)cc1 | . | -7% | . | 0% | 22%[46.1 µM] | 7% | -2% | 9%
O=C(NCc1ccco1)c1sc2cc(F)ccc2c1Cl | ? | 0% | ? | -36% | 3% | -14% | -6% | .
CCOc1ccc(CC(C(N)=O)C(N)=O)cc1 | . | 0%[46.1 µM] | . | 1% | 18%[46.1 µM] | -9% | . | 20%
CCC1(CC)NC(=O)N(CC(=O)OCC(=O)Nc2sccc2C#N)C1=O | . | 2% | . | 2% | 2% | 15% | . | 8%
CC(C)Cn1cc(C(=O)NCC2CCCO2)c2c3ccccc3n(C)c2c1=O (stereo not given) | -4% | 2% | -2.3% | -13% | -1% | -4% | -5% | 2%
Clc1ccc2c(N3CCOCC3)ccnc2c1 | . | -11% | . | -4% | -17% | -11% | 3% | -2%
Cc1ccc(OC(C)C(=O)Nc2nonc2-c2ccc(Br)cc2)cc1C (stereo not given) | -12% | 15%[46.1 µM] | -3.1% | . | 2%[46.1 µM] | . | . | ?
CC(C)CNc1ncnc2c1nnn2C | 2% | 6%[46.1 µM] | -2.0% | . | . | . | . | 9%
CN(CCC#N)C(=O)COC(=O)c1ccc2[nH]c3c(c2c1)CCCC3 | . | ? | . | 2% | ? | -18% | . | 9%
CCOC(=O)c1sc(NC(=O)C(C)Sc2nc(-c3ccccc3)cc(C(F)(F)F)n2)c(C(=O)OC)c1C (stereo not given) | 8% | -21%[46.1 µM] | -0.5% | . | 2%[46.1 µM] | . | . | -13%
O=C(Cn1nc(-c2cccc(Cl)c2)ccc1=O)Nc1ccc(C(=O)NC2CC2)cc1 | . | . | . | 0% | 8%[46.1 µM] | 2% | 8% | 1%
Cc1c(/C=N/NC(=O)c2ccc(O)cc2)c2ccccn2c1C(=O)c1ccc(F)cc1 | ? | 11µM* | -3.0% | 15% | ? | -22% | 8.9µM* | ?
O=C(COC(=O)c1ccccc1Oc1ccccc1)NCc1ccco1 | -10% | 5% | -8.0% | 3% | -7% | -7% | -18% | -3%
COc1cccc(/C=C/C(=O)OCC(=O)Nc2ccc(Cl)c(S(=O)(=O)N(C)C)c2)c1 | . | -3% | . | -1% | 7%[46.1 µM] | 10% | . | -13%
Cc1ccc(NC(=O)COC(=O)CSCC(=O)Nc2cc(C)on2)c(C)c1 | . | 17%[46.1 µM] | . | -2% | ? | -18% | . | -5%
O=C(O)CCC(=O)Nc1nc2ccccc2s1 | 6% | -7% | 3.0% | -9% | -9% | -23% | 12% | 10%
CCOc1ccc(-c2nnc(SCC(=O)N(CC)c3cccc(C)c3)o2)cc1 | -14% | 13%[46.1 µM] | -2.7% | . | 9%[46.1 µM] | . | . | ?
COCc1nc2ccccc2n1Cc1ccccc1 | -13% | 24% | 5.9% | 10% | 15% | 19% | -13% | 38%[activator]
NNc1nc(-c2ccccc2)c2ccccc2n1 | . | ? | . | -1% | -25%[46.1 µM] | 8% | 14% | -10%
Cc1ccccc1C=Nc1ccccc1C(N)=O | 10% | ? | -15% | 21% | ? | -4% | 15% | -18%
Cc1c(C(=O)Oc2ccc(F)cc2)sc2ncn(Cc3cccc(F)c3)c(=O)c12 | 15% | 11% | -5.6% | ? | ? | -3% | -3% | -11%
Cc1cc(C)cc(NC(=O)Nc2ccc(NC(=O)c3ccccc3O)cc2)c1 | . | ? | . | 3% | ? | 7% | 13% | -14%
CCc1ccccc1NC(=O)CN(c1ccc(OC)cc1OC)S(=O)(=O)c1ccccc1 | . | . | . | ? | . | 8% | 9% | 12%
CCOC(=O)CNC(=S)N(Cc1cccs1)C1CCCCC1 | -15% | -1% | -1.4% | 4% | -3% | 0% | 4% | -7%
N#C/C(=C\c1ccccc1C(=O)O)c1nc2ccccc2[nH]1 | . | ? | . | 1% | ? | -15% | 4% | 12%
Cc1cc(C)cc(NS(=O)(=O)c2ccc3[nH]c(=O)ccc3c2)c1 | . | . | . | 3% | . | 4% | 7% | 34%[activator]
CCCN(C(=O)c1nn(-c2ccc(OC)cc2)c(=O)c2c1c1ccccc1n2C)c1ccc(CC)cc1 | 9% | 21%[46.1 µM] | -0.7% | . | -5%[46.1 µM] | . | . | -23%
CC(C)OC(=O)/C(C#N)=C\c1cccnc1 | . | 3% | . | 0% | 19% | -11% | 3% | -21%
Clc1cccc(-c2nn3c(-c4cccc(Cl)c4)nnc3s2)c1 | -13% | . | 1.9% | ? | 1% | . | 7% | .
COc1ccccc1Cn1c(CNS(=O)(=O)c2ccccc2Cl)nc2cccnc21 | -8% | 2%[46.1 µM] | -1.1% | . | . | . | . | 34%[activator]
CCOc1ccccc1Oc1c(C)oc2c(CN3CCN(CCO)CC3)c(O)ccc2c1=O | 6% | 28% | 8.2% | -8% | 12% | -3% | 5% | 12%
Cc1ccc(C2CC(c3ccc(NS(C)(=O)=O)cc3)=NN2C(=O)c2ccco2)cc1 (stereo not given) | -1% | ? | -17% | 10% | -20% | -15% | ? | -11%
COc1ccc(C(=O)N(C)Cc2ccc(C)o2)cc1OC1CCN(C(C)C)CC1 | . | ? | . | 0% | -14% | -21% | 2% | 4%

Rewritten with each value named: entries from further up
Cc1ccc(C2CC(c3ccc(NS(C)(=O)=O)cc3)=NN2C(=O)c2ccco2)cc1 (stereo not given)
  Cruzain noTriton: -1%
  Lassa entry inh: ?
  Cruzain inh Det: -17%
  SARS PLP yeast: 10%
  Marburg entry inh: -20%
  RE007 growth inh: -15%
  NS1 function inh: ?
  StopGo reporter: -11%

COc1ccccc1Cn1c(CNS(=O)(=O)c2ccccc2Cl)nc2cccnc21
  Cruzain noTriton: -8%
  Lassa entry inh: 2%[46.1 µM]
  Cruzain inh Det: -1.1%
  SARS PLP yeast: .
  Marburg entry inh: .
  RE007 growth inh: .
  NS1 function inh: .
  StopGo reporter: 34%[activator]

Remaining list, next part.
SMILES | Cruzain noTriton | Lassa entry inh | Cruzain inh Det | SARS PLP yeast | Marburg entry inh | RE007 growth inh | NS1 function inh | StopGo reporter
Cc1ccccc1NC(=O)c1cccc(Cn2cc(Br)c([N+](=O)[O-])n2)c1 | -10% | ? | 7.7% | 3% | ? | 24% | 9% | ?
COc1ccc(NC(=O)c2cncc(Br)c2)cc1S(N)(=O)=O | . | ? | . | 8% | -26% | -6% | -1% | 11%
CCSc1ccc(NC(=O)c2cccnc2)cc1 | -7% | 9% | -0.5% | -5% | -2%[46.1 µM] | 44% | -7% | 36%[activator]
CC1Oc2ccccc2OC1(O)c1ccccn1 (stereo not given) | 6% | -3% | -1.2% | 5% | 9% | 15% | 2% | -12%
COc1cc(CNCc2ccc(Br)cc2)cc(OC)c1 | . | . | . | -2% | . | -21% | 1% | -17%
OCCN(/C=N/c1nc(-c2ccc(Br)cc2)cs1)CCO | 25% | -2% | -3.9% | -43% | 12% | -3% | -113% | 41%[activator]
COc1ccc(NC(=O)Cn2c(=O)c(-c3cc(C)ccc3NC(C)=O)nc3ccccc32)c(OC)c1 | -3% | -3%[46.1 µM] | -2.9% | . | ? | . | . | -14%
O=C1CC(SC(=Nc2ccccc2)Nc2ccccc2)C(=O)N1c1ccc(Cl)c(Cl)c1 (stereo not given) | ? | ? | -2.1% | -10% | -22% | 2% | 3% | 0%
CC(=O)Nc1cc2c3ccccc3n(C)c2cc1[N+](=O)[O-] | . | -27%[46.1 µM] | . | . | 1%[46.1 µM] | 6% | . | -27%
O=C(NCc1ccccn1)c1ccc(/C=N/O)nc1 | -4% | -4% | 2.7% | 7% | 18%[46.1 µM] | -1% | ? | -19%
